Bst PK mod – alters activity of Bacillus stearothermophilus pyruvate kinase; partly purified Bacillus stearothermophilus pyruvate kinase, luminescence ATP production; ribose 5-phosphate activator present at AC10; Potency, µM; actives 1.2% (n = 51,000); AID 361; in the data active means potency below about 11 µM; inconclusive means mostly about 12 µM to 25 µM; inactive means weaker than that;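 the screen sought inhibitors and activators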;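 also: potency is read from the fitted curve at half-maximal effect; scaled between full activation by ribose 5 phosphate and full inhibition by luteolin; about four in five hits inhibit and the cells do not say which; series up to 57 µM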
YjeE inh – YjeE (TsaE) inhibition, E. coli. P0AF67. purified YjeE, fluorescence polarisation of a bound ADP probe. Potency, µM. actives 0.05% (n = 71,000). AID 605; active = well fitted falling curve; inconclusive = weaker or top-dose-only fall, or a rising curve; inactive = flat or poorly fitted curve;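 also: top concentration of the series not given in the record; excess ADP was the control for the full effect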
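Purified YjeE (10 uM) with BODIPY Texas Red-labeled ADP probe (2 uM); compounds pin-transferred, 15 min at room temperature. Binding inhibition read as decreased fluorescence polarization; ADP titration as control.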
An asterisk follows results filed as active; i = inactive; ? = inconclusive; · = no result given.

Bst PK mod	YjeE inh	compound
>57	i	COc1ccc(C(=O)OCCN2CCOCC2)cc1OC
>57	i	Cc1nc(C)n(C(C)CC(=O)O)n1 (centres undefined)
>57	i	CCC(=O)Nn1c(C)nnc1C
·	?	Oc1ccc(N=Cc2ccc(O)c(O)c2)cc1
·	i	COc1cccc(NC(=O)n2nc(N)cc2-c2ccc(Cl)cc2)c1
>57	i	Cc1ccc2c(c1)N(CC(=O)N1CCCCCC1)C(=O)CO2
>57	i	CC1CCC2(CC1)NC(=O)N(Cc1nc(-c3ccccc3)no1)C2=O (centres undefined)
·	i	NC(=O)c1cccc(S(=O)(=O)N2CC(c3ccccc3)CC2=O)c1 (centres undefined)
>57	i	Cc1occc1C(=O)Nc1nn[nH]n1
·	i	COc1ccccc1Nc1nc(N)nc(CN2CCOCC2)n1
>57	i	CN(C(=O)c1ccncc1)C1CC(C)(C)N(O)C(C)(C)C1
>57	i	CC1CCCCC12NC(=O)N(Cn1nnc3ccccc3c1=O)C2=O (centres undefined)
·	i	Cc1[nH]c2ccccc2c1-c1cc(-c2cc(-c3c(C)[nH]c4ccccc34)on2)no1
·	i	Cn1c(=O)c2c(nc(-n3ccnc3)n2Cc2ccc(Cl)cc2Cl)n(C)c1=O
>57	i	COc1ccc(C2C3=C(CC(C)(C)CC3=O)Nc3c2c(=O)[nH]c(=O)n3Cc2ccccc2)cc1OC (centres undefined)
>57	i	CCCCn1nc(CC(=O)O)c2ccccc2c1=O
>57	i	COc1nc(C#N)c(N2CCOCC2)o1
>57	i	CCCCCCOc1ccc(OCC(O)CN2C(=O)NC(C)(C)C2=O)cc1 (centres undefined)
·	i	Cc1noc(C)c1-c1cncnc1Nc1ccccc1
>57	i	COc1cc(NC(=O)C23CC4CC(C2)CC(n2nnc(C)n2)(C4)C3)c(OC)cc1Cl
>57	i	Cc1coc(NC(=O)CSc2nc(-c3ccncc3)cc(C(F)(F)F)c2C#N)n1
>57	i	CN(C(=O)c1cccc(C#N)c1)c1nnc(-c2ccncc2)s1
>57	i	COC(=O)Cc1c(C)nc2nc(-c3ccco3)[nH]n2c1=O
·	i	Cn1c(Cn2c(=O)sc3ccccc32)nnc1SCC(=O)Nc1cccc(F)c1
>57	i	CCOC(=O)NC(=O)CN1C(=O)NC(C)(c2ccccc2)C1=O (centres undefined)

Next section; it opens with the 7 that closed the last part.
Bst PK mod	YjeE inh	compound
·	i	Cc1noc(C)c1-c1cncnc1Nc1ccccc1
>57	i	COc1cc(NC(=O)C23CC4CC(C2)CC(n2nnc(C)n2)(C4)C3)c(OC)cc1Cl
>57	i	Cc1coc(NC(=O)CSc2nc(-c3ccncc3)cc(C(F)(F)F)c2C#N)n1
>57	i	CN(C(=O)c1cccc(C#N)c1)c1nnc(-c2ccncc2)s1
>57	i	COC(=O)Cc1c(C)nc2nc(-c3ccco3)[nH]n2c1=O
·	i	Cn1c(Cn2c(=O)sc3ccccc32)nnc1SCC(=O)Nc1cccc(F)c1
>57	i	CCOC(=O)NC(=O)CN1C(=O)NC(C)(c2ccccc2)C1=O (centres undefined)
·	i	O=C(Nc1ccc(F)cc1F)N1CCN(C/C=C/c2ccccc2)CC1
·	i	CCN(CC)C[C@@H](O)c1ccc2ccc3ccccc3c2c1
·	i	Cc1ccc2c(CNCc3ccco3)cc(=O)oc2c1
>57	i	COC(=O)COc1cccc(-n2cnnn2)c1
>57	i	C=CCN1CCN(C(CC(C)C)c2nnnn2CCOC)CC1 (centres undefined)
>57	i	COc1cccc(C(=O)n2cnnc2N)c1OC
·	i	CC(=O)Nc1c(Cl)n(C(C)=O)c2ccccc12
>26	·	O=C(c1cc(N2CCCCC2)nc2ccccc12)N1CCOCC1
>57	i	Cc1nc(-c2ccc(NS(C)(=O)=O)cc2)cs1
>57	i	O=C(CSc1nn(-c2ccc(Cl)cc2)c(=S)s1)N1CCN(C(=O)c2ccco2)CC1
·	i	Cn1c(Cn2c(=O)sc3ccccc32)nnc1SCC(=O)Nc1cccc(Cl)c1
>57	i	CC(NC(=O)NCC1CCCO1)(C(F)(F)F)C(F)(F)F (centres undefined)
·	i	CCOc1ccc(-c2nc(=S)[nH][nH]2)cc1
>57	i	Cc1nnsc1NC(=O)OCC(C)C
·	i	N[C@H](C(=O)O)c1ccc(C(=O)O)cc1
>57	i	Cc1ccc2nc(S(=O)(=O)O)[nH]c2c1
·	i	N#Cc1c(N)c(C(=O)c2ccc(Br)cc2)n2c1CCC2
0.093*	i	COC(=O)c1sc(NC(=O)c2ccc(OC)cc2OC)nc1C
>57	i	COC(=O)c1cn(-c2ccccc2)nc1C(=O)OC
>57	i	CCCCNC(=O)c1c[nH]c2ccc(S(=O)(=O)Nc3ccc(OCC)cc3)cc2c1=O
>26	·	O=C(O)C(O)c1ccco1 (centres undefined)
·	i	CCCC[C@]1(C2CCCC2)Cc2cc(OCC(=O)O)c(Cl)c(Cl)c2C1=O
·	i	O=C1c2ccccc2C(=O)N1CCCc1nc2ccccc2c(=O)n1-c1cccnc1
>57	i	Cc1ccc(-n2nnnc2SCC(=O)c2cc(C)n(-c3cc(C)on3)c2C)c(C)c1
>57	i	Cn1c(=O)cc(OCCCC(=O)Nc2ccc3c(c2)OCCO3)c2ccccc21

Of the compounds above, 5 have a COOH group:
Bst PK mod	YjeE inh	compound
>57	i	Cc1nc(C)n(C(C)CC(=O)O)n1 (centres undefined)
>57	i	CCCCn1nc(CC(=O)O)c2ccccc2c1=O
·	i	N[C@H](C(=O)O)c1ccc(C(=O)O)cc1
>26	·	O=C(O)C(O)c1ccco1 (centres undefined)
·	i	CCCC[C@]1(C2CCCC2)Cc2cc(OCC(=O)O)c(Cl)c(Cl)c2C1=O

Other compounds
Bst PK mod	YjeE inh	compound
>57	i	COc1ccc(-c2nnn(CC(=O)Nc3sc4c(c3C#N)CCCC4)n2)cc1
·	i	COc1ccc(Cl)cc1N(CC(=O)Nc1ccc2c(c1)OCCO2)S(C)(=O)=O
?	i	CN(c1ccc(O)cc1)c1nc(-c2ccccc2)cs1
>57	i	O=C(NCc1ccccn1)C1CCN(S(=O)(=O)N2CCCCC2)CC1
·	i	O=C(CN1C(=O)C2CC=C(Cl)CC2C1=O)NCc1ccccc1 (centres undefined)
·	i	Cc1cc(Nc2ccccc2)n(C(=O)c2ccc(N)cc2)n1
>57	i	CN1C(=O)C2(C(C#N)=C(N)Oc3c2oc(CO)cc3=O)c2ccccc21 (centres undefined)
>57	i	Cc1nc2ccc(NC(=O)N3CCSCC3)cc2nc1C
·	i	O=C(O)c1ccc(Cl)c(NC(=O)C2CCCN2S(=O)(=O)c2cccc3nsnc23)c1 (centres undefined)
>57	i	CCSC1=C(C#N)C(c2ccccc2C)CC(=O)N1 (centres undefined)
>57	i	Cc1cccc(C)c1NC(=O)C(c1cccs1)N(Cc1ccco1)C(=O)Cn1nnc2ccccc21 (centres undefined)
·	i	O=S(=O)(Nc1ccc2nc(-c3ccco3)[nH]c2c1)c1ccccc1
>57	i	Cc1csc(NC(=O)CSc2ncnc3c2cnn3-c2ccccc2Cl)n1
>57	i	CC(C)C(=O)N(Cc1cc2ccccc2[nH]c1=O)C(C)(C)C
>57	i	O=C(Nc1nc(-c2ccccc2)cs1)C1CCCN(S(=O)(=O)c2ccccc2)C1 (centres undefined)
·	i	Cc1cc(OCCCn2ccnc2)cc(C)c1Cl
i	i	Cn1ccnc1SCC(=O)Nc1ccc2ccccc2c1
>57	i	COc1ccccc1N(C(=O)CNS(=O)(=O)c1ccccc1)C(C(=O)NCc1ccco1)C(C)C (centres undefined)
>57	i	CC1=C(C(N)=O)C(c2cccnc2)n2nc(SCc3ccccc3Cl)nc2N1 (centres undefined)
·	i	CCOC(=O)N1CCN(C(=O)CN(c2cccc(C(F)(F)F)c2)S(C)(=O)=O)CC1
>57	i	O=C(NCCCn1ccnc1)Nc1ccc(Cl)cc1
>57	i	COc1ccc(CCN2C(=O)CC(N3CCOCC3)C2=O)cc1 (centres undefined)
>57	i	Cc1nn(C)c(C)c1NC(=O)CN1CCC(O)(c2ccc3c(c2)OCO3)CC1
>57	i	CCC(=O)c1cc(-c2nc3ccccc3n2C)n(C)c1
·	i	Cc1ccccc1Nc1ncnc2c1cnn2-c1ccccc1

New compounds follow.
Bst PK mod	YjeE inh	compound
>57	i	COc1cccc(C(=O)Nc2ncc3c(n2)CC(c2ccc(OC)cc2OC)CC3=O)c1 (centres undefined)
>57	i	COCCN1C(=O)C(CC(=O)Nc2ccc(C(C)=O)cc2)SC1=Nc1ccccc1 (centres undefined)
>57	i	Cc1cc(C)n(-c2nc3c(c(=O)[nH]c(=O)n3C)n2Cc2cccc(Br)c2)n1
>57	i	Cc1c(-c2ccccc2)c(P(=O)(N2CCOCC2)N2CCOCC2)c2ccccn12
·	i	CCOc1ccccc1N
·	i	c1ccc(-n2ncc(-c3nn[nH]n3)n2)cc1
>57	i	Cc1ccc(-n2c(Cc3cccn3C)nnc2SCC(=O)N2CCN(c3ccccc3)CC2)cc1
>57	i	O=C1CCC(C(=O)O)(c2ccccc2)C1 (centres undefined)
·	i	CC(=O)NCCNc1cc(-c2ccccc2CN(C)C)ncn1
·	i	O=c1/c(=C\c2cccnc2)sc2nc3ccccc3n12
>57	i	COc1ccc(Cn2nnnc2C(c2ccccc2OC)N2CCC(C(N)=O)CC2)cc1 (centres undefined)
>57	i	COC(=O)C(CC(=O)Nc1cc(C)ccc1C)Nc1ccccc1OC (centres undefined)
i	i	O=c1nc2n(c3c1oc1ccccc13)Cc1ccccc1-2
>57	i	O=C(Cc1ccc(-n2cccc2)cc1)NC1CCCCC1
·	i	Cc1nc(N2CCOCC2)c2nc(-c3ccccc3)n(CCN3CCCC3)c2n1
>57	i	CCC(c1nnnn1Cc1ccco1)N1CCC(C(N)=O)CC1 (centres undefined)
·	i	CC(C)CN1CCCC2(CCN(C(=O)c3cnccn3)CC2)C1
·	i	C/C(O)=C(/C#N)c1nc2ccccc2[nH]1
>57	i	CC(OC(=O)CCCN1C(=O)c2ccccc2C1=O)C(=O)Nc1ncc(Cl)cc1Cl (centres undefined)
>57	i	CCOC(=O)c1sc(NC(=O)CSc2nnnn2-c2ccc(C)cc2C)nc1C
>57	i	CC1(NC(=O)C23CC4CC(CC(C4)C2)C3)CCS(=O)(=O)C1 (centres undefined)
·	i	CCCn1c(C)nc2c(NCCCN(CC)CC)nc(C)nc21
>57	i	Cc1ccc(NC(=O)NC(=O)CN2C(=O)NC3(CCc4ccccc43)C2=O)c(C)c1 (centres undefined)
>57	i	Cn1c(C2=C(O)CN(c3ccc4c(c3)OCCO4)C2=N)nc2ccccc21
·	i	O=C(O)C[C@H](Cc1ccccc1Cl)C(=O)O

Later entries
Bst PK mod	YjeE inh	compound
·	i	Cc1ccc(Cl)cc1N1CCN(Cc2nc3c(c(=O)[nH]c(=O)n3C)n2Cc2ccccc2F)CC1
>57	i	Cc1cc(N2C(=O)C(=O)/C(=C(/O)c3ccc(Cl)cc3)C2c2cccc(Br)c2)no1 (centres undefined)
>57	i	CN(C)/C=C1\C=C(c2ccccc2)OC1=O
·	i	Cc1nc2ccccc2c2oc(C(=O)N3CCN(C4CCCCC4)CC3)cc12
>57	i	COc1cccc2cc(C(C)N(CCCN3CCOCC3)C(=O)Nc3ccccc3)oc12 (centres undefined)
>57	i	CCOc1ccc(OCC)c(NC(=O)C2COc3ccccc3O2)c1 (centres undefined)
>57	i	Cn1c(=O)c2c(nc(CN3CCC(C(N)=O)CC3)n2Cc2ccccc2Cl)n(C)c1=O
>57	i	Cc1nc(NCC2CCCO2)c2oc3ccccc3c2n1 (centres undefined)
·	i	Cc1cccc(OCCCCCn2ccnc2)c1
·	i	O=C(NCc1ccc(F)cc1)C1CCC(=O)N1CCc1ccccc1 (centres undefined)
·	i	CCOc1ccc2nc(NC(=O)CSC3=NCCS3)sc2c1
·	i	CCOC(=O)C1C(=O)NC(SC)=C(C#N)C1c1ccccc1F (centres undefined)
>57	i	Cc1ccc(S(=O)(=O)N[C@H](C(=O)N2CCC(C(=O)N3CCC[C@H]3C(=O)O)CC2)C(C)C)cc1
>57	i	CC(C)(C)S(=O)(=O)c1ccccc1C(=O)O
>57	i	COc1ccccc1NC(=O)C(C)N1CCN(C/C=C/c2ccccc2)CC1 (centres undefined)
·	i	CCN(CC)CCCCn1c(-c2ccccc2)nc2c(N3CCOCC3)nc(C)nc21
·	i	O=C(c1ccccc1)c1cc2ccccc2o1
>57	i	COc1ccccc1CN1CC(C(=O)NCc2cccnc2)CC1=O (centres undefined)
>57	i	O=C(C1CCCN(Cc2cccs2)C1)N1CCCCCC1 (centres undefined)
·	i	c1nnc(NCNc2nncs2)s1
>26	·	C=CCN=C(NC#N)SCCc1ccccc1
>57	i	O=C(NCc1cccnc1)C1c2ccccc2C(=O)N1C1CCCCCC1 (centres undefined)
>57	i	COCCCN1C(=O)c2ccc(C(=O)Nc3ccc(OC)cc3OC)cc2C1=O
·	i	N/C(=N\c1nc2ccccc2o1)NC(=O)C(Cc1ccccc1)N1C(=O)c2ccccc2C1=O (centres undefined)
>57	i	Cc1nc(SCC(=O)Nc2ccccc2C(F)(F)F)c2c(=O)n(C)c(=O)n(C)c2n1
>57	i	CCn1c(CNc2ccccc2Cl)nnc1SCC(=O)OC1CCCCC1

Reformatted with values under each structure: entries from further up.
Values run as follows: Bst PK mod, YjeE inh
- Cc1cc(C)n(-c2nc3c(c(=O)[nH]c(=O)n3C)n2Cc2cccc(Br)c2)n1
→ >57, i
- Cc1c(-c2ccccc2)c(P(=O)(N2CCOCC2)N2CCOCC2)c2ccccn12
→ >57, i
- CCOc1ccccc1N
→ ·, i
- c1ccc(-n2ncc(-c3nn[nH]n3)n2)cc1
→ ·, i
- Cc1ccc(-n2c(Cc3cccn3C)nnc2SCC(=O)N2CCN(c3ccccc3)CC2)cc1
→ >57, i

Source: PubChem

The list is partial; count on the stated rates, not on these rows.
